Vaccinia mCherry – vaccinia inhibition (mCherry reporter); Vaccinia virus mCherry reporter infection, fluorescence; about a quarter of the inactives have no number; Potency, µM (doses to about 36.5 µM), without a hit: top-dose activity change, negative = inhibition, most hits filed as inhibitors; 0.63% of 310,000 active; active = well fitted inhibition curve with a large enough effect; inconclusive = small, poorly fitted or top-dose-only effect; inactive = no such curve, though single readings can be large or run the other way; tested in A549 cells; further: nearly all actives have a fitted effect of over 35% in size; inactives centre near -10
Vaccinia Venus – vaccinia inhibition (Venus reporter). 0.46% of 330,000 active. Potency, µM (doses to about 36.5 µM), inactives show at the top dose activity change, negative = inhibition, hits mostly inhibitors. Vaccinia virus Venus reporter expression, fluorescence; active means well fitted inhibition curve with a large enough effect; inconclusive means small, poorly fitted or top-dose-only effect; inactive means no such curve, though single readings can be large or run the other way; tested in A549 cells; further: nearly all actives have a fitted effect of over 30% in size; inactives centre near -10
Active calls of the source: *; i = inactive; ? = inconclusive; . = no result given; & = joins results of further samples; [ ] = another dose, or the depositor's remark. On the % scale 0 is the no-effect control and ±100 the full control effect; potency means the concentration at half of the fitted maximal effect.

Fields – Vaccinia mCherry	Vaccinia Venus
CCn1cc(C2=NOC(C(=O)Nc3ccc4c(c3)OCO4)C2)c(C)n1 (stereo not given)
→ i	-17%
CN1C(=O)NC(c2ccccc2)C2=C1CN(c1ccc3ccccc3c1)C2=O (stereo not given)
→ .	-10%
CCOc1ccccc1NC(=O)C1CCN(S(=O)(=O)c2ccc3c(c2)CC(C)N3C(C)=O)CC1 (stereo not given)
→ -2%	-6%
OCCN1CCN(c2ncnc3c2ncn3[C@H]2CN(Cc3cccc(C(F)(F)F)c3)C[C@@H](CO)O2)CC1
→ i	-8%
CCCCC(=O)NC(c1ccc(N(C)C)cc1)c1ccc2cccnc2c1O (stereo not given)
→ 1.3µM*	-27%
Nc1ncccc1OCc1ccc(Br)cc1
→ -1%	0%
Cc1ccc(-c2noc(CCC(=O)NC3CCCC3)n2)cc1
→ 0%	-11%
O=C(COc1ccc(S(=O)(=O)NC2CCCCC2)cc1)NCc1ccccn1
→ i	-3%
O=C(c1ccc(CSc2nc3ccncc3n2Cc2cccc(F)c2)cc1)N1CCCCC1
→ -18%	-12%
COc1ccc(-c2cc(C(=O)N3CCN(c4ccccc4)CC3)no2)cc1
→ -25%&-5%	-21%&-4%
CC1CCc2c(sc(NC(=O)CCCn3cnc([N+](=O)[O-])n3)c2C(N)=O)C1 (stereo not given)
→ i	-2%
CCN(CC)C(=O)c1ccc(NC(=O)COc2ccc(-c3nn(C)c(=O)c4ccccc34)cc2)cc1
→ -13%&-24%	-26%&-16%
O=C(CC1Sc2ncnn2C1=O)Nc1ccccc1 (stereo not given)
→ -5%	-2%
O=C(Nc1ccc2ccccc2c1)c1onc2c1CCCC2
→ -18%	?
CCOC(=O)c1c(O)c2ccccc2n(-c2ccccc2)c1=O
→ .	-6%
Cc1ccc(OCC(=O)Nc2nnc(S(=O)(=O)N3CCC(C)CC3)s2)cc1
→ i	-10%
Cc1cc(C(=O)Nc2cccc(-c3nc(CNC(=O)c4cnccn4)c(C)o3)c2)c(C)o1
→ -10%	35%[activator]
Cc1cc(-c2nc3ncccc3o2)ccc1NC(=O)COc1ccccc1C
→ 4%	-1%
COCCN(Cc1ccccc1)C(=O)c1ccc2c(=O)n3c(nc2c1)CCC3
→ -9%	-7%
c1ccc2c(c1)CNC1(CCCCC1)C2
→ .	-3%
CC1=CC2=NC(=O)/C(=C\c3cccn3CCOc3ccccc3)C(=N)N2O1
→ -8%	?
CCCCCC(=O)Nc1ccc(C(=O)COC(=O)Cn2cnc3c2c(=O)n(C)c(=O)n3C)cc1
→ i	-4%
C[C@@H]1CN([C@@H](C)CO)C(=O)CCCn2nncc2CO[C@@H]1CN(C)S(=O)(=O)c1ccc(-c2ccccc2)cc1
→ i	-30%
COc1ccc(C(=O)c2c[nH]c(C(=O)NCCCN3CCOCC3)c2)cc1
→ -18%	-8%
CCOC(=O)N1CCN(C(=O)CCCOc2ccccc2)CC1
→ i	-15%
OCc1nc2ccccc2n1CC(O)Cn1ccc2ccccc21 (stereo not given)
→ .	?
C=CCn1c(SCC(=O)N(CCOC)c2c(N)n(CC(C)C)c(=O)[nH]c2=O)nc2ccccc21
→ -3%	0%
COc1ccc(CCN(C)C2CCCN(S(=O)(=O)N(C)C)C2)cc1OC (stereo not given)
→ 0%	2%
CCCNS(=O)(=O)c1cc(Cl)ccc1OC
→ -5%	-3%
C/C=N\NC(=O)COc1cc(C)ccc1C
→ -14%	-23%
Cc1nn(C)cc1S(=O)(=O)N1CCN(Cc2cccc(Cl)c2)CC1
→ 0%	9%
CCOC(=O)c1cc(-c2ccc([N+](=O)[O-])cc2)nc2c1c(=O)[nH]c(=O)n2Cc1ccccc1
→ -14%	4%
Cc1ccnc(NC(=O)C2CCN(S(=O)(=O)c3ccc(Cl)c(C(F)(F)F)c3)CC2)c1
→ i	-11%
COC(=O)CNC(=O)Cn1nc(C)c([N+](=O)[O-])c1C
→ -1%	-13%
N#Cc1ccccc1Cn1c(=O)n(Cc2ccc(C(=O)NCc3ccco3)cc2)c(=O)c2sccc21
→ 2%	-5%
COc1ccc(NC(=O)c2ccccc2Cl)cc1NC(=O)CN1CCOCC1
→ .	-1%
CC(NC(=S)Nc1ccccc1Cl)C(c1cccs1)N1CCCC1 (stereo not given)
→ -26%	-16%
Cc1ccc(NC(=O)N2CCN(c3ccc(Cl)c(Cl)c3)CC2)cc1
→ -21%	-15%
O=C(c1ccccc1F)N(Cc1ccccc1)Cc1ccccc1
→ -17%	6%
COc1cc(NC(=O)CCC(=O)c2cccs2)cc(OC)c1
→ -22%	-13%

(more compounds)
Structure	Vaccinia mCherry	Vaccinia Venus
CCC(=O)N1CCN=C1SCc1ccc(F)cc1	i	4%
CCOC(=O)N1CCN(S(=O)(=O)c2ccc(C(=O)Nc3nc4ccc(F)cc4s3)cc2)CC1	-6%	-7%
O=C(NCCc1ccc(Cl)cc1)C1CCN(S(=O)(=O)c2ccc(Br)s2)CC1	-28%	-22%
CCN(CC)S(=O)(=O)c1ccc(Cl)c(C(=O)OC2CC(C)OC2=O)c1 (stereo not given)	i	-9%
C=CCn1cc(C=C2C(=O)NC(=O)NC2=O)c2ccccc21	-23%	-6%
Nc1ccc(CSc2ccc(Cl)cc2)c(Cl)c1	?	-13%
COc1ccc(C=O)cc1COc1c(F)c(F)cc(F)c1F	i	-8%
CN1CCC(N2CCN(C3CN(Cc4cn(Cc5ccc(F)cc5)nn4)S(=O)(=O)C3)CC2)CC1 (stereo not given)	-7%	-2%
CCCC(=O)Nc1nc2ccc(C(=O)OCC)cc2s1	-4%	-13%
Cc1ccnc(NC(=O)CCC(=O)c2cc(C)sc2C)c1	-9%	14%
CCCN(C(=O)CSc1n[nH]c(-c2ccc(OC)cc2)n1)c1c(N)n(Cc2ccccc2)c(=O)[nH]c1=O	-8%	-9%
O=C(c1ccc(Cn2cc(Cl)cn2)o1)N1CCN(Cc2ccc3c(c2)OCO3)CC1	.	-20%
COc1ccc(S(=O)(=O)N(CC(=O)NCc2ccccn2)Cc2ccccc2)cc1	-13%	-12%
Cc1cc(NC(=O)CCNS(=O)(=O)c2ccc3c(c2)oc(=O)n3C)ccc1Br	-9%	-9%
c1ccc(NC2=NCCN2CC2CCCCC2)cc1	-10%	-9%
CCCCNC(=O)C1(C)CCCCN1C(=O)c1cc(-c2ccccc2)cs1 (stereo not given)	?	-26%
COc1ccc(CC(=O)Nc2ccc(C(=O)NC(C)(C)C)cc2)cc1	-7%	-5%
Nc1nnc(CC(=O)Nc2ccccc2)s1	i[7.34 µM]	-5%[7.34 µM]
COc1ccc(OCC(O)CNCc2ccco2)cc1 (stereo not given)	.	-16%
CCOc1ccc(Nc2nnc(-n3nc(C)cc3C)c3ccccc23)cc1	-8%	-4%
O=C(c1cccc(F)c1)N1CCN(C2CCCCC2)CC1	-12%	-2%
O=c1c(-c2ccc(O)cc2)coc2cc(OC3OC(CO)C(O)C(O)C3O)cc(O)c12 (stereo not given)	-21%	-13%
CC(C)Cc1ccc(CN2CCCC(NC(=O)Cn3cnnn3)C2)cc1 (stereo not given)	-16%	-20%
O=C(NC1CCS(=O)(=O)C1)c1ccc(Br)s1 (stereo not given)	-6%	-13%
Cc1cccc(-n2nc3c(c2NC(=O)c2ccc(S(=O)(=O)N4CCOCC4)cc2)CSC3)c1C	-8%	-6%
CCc1nc2ccc(C(=O)NCCCN3CCCC3=O)cn2c1N(CC)Cc1cccc(Br)c1	-27%	-14%
Cc1nc(-c2ccccc2)cc(-c2ccccc2)n1	5%[7.34 µM]	-12%[7.34 µM]
Cc1ccc(C2(c3noc(CN4CCC(c5ccncc5)CC4)n3)CCCC2)cc1	i	-6%
Cc1ccc(S(=O)(=O)n2nc(OC(=O)c3cccs3)cc2N)cc1	-3%	-13%
Cc1ccc(C)c(S(=O)(=O)Nc2cc3c4c(c2)CCC(=O)N4CCC3)c1	-22%	-10%
CC(=O)Nc1cc(-c2cccnc2)cn2c(-c3cccc(C(F)(F)F)c3)cnc12	10µM*	13µM*
Cc1ccc(-c2nn(CC(=O)NC3CCCC3)c3c2cnc2ccccc23)cc1	-14%	-7%
O=C(O)Cc1ccc(C(=O)c2ccc(F)cc2)s1	-19%	-4%
CCc1ccc(NC(=O)N2CCc3ccccc3C2)cc1	-4%	-21%
N#CCCCCN1c2cccc3cccc(c23)S1(=O)=O	-17%	2%
COc1ccc(-c2csc(Nc3ccc(S(=O)(=O)Nc4cc(C)on4)cc3)n2)cc1	-12%	18%
COc1ccc(C(=O)NN/C(=N/S(=O)(=O)c2ccc(C)cc2)c2ccccc2)cc1	i	-10%
COc1ccc(-c2cc(-c3ccc(OC)cc3)c(C#N)c(SC)n2)cc1	i	-1%
O=C1NCCN(Cc2ccc(Cl)c(F)c2)C1CC(=O)N1CCCO1 (stereo not given)	-8%	-23%
CSC1(SC2=NCCN2)SC2(NCCN2)S1	i	-12%
CC(C)C(=O)Nc1ccc2c(c1)oc1ccccc12	?	-25%
CC(=O)c1sc(-c2ccccc2)cc1NS(=O)(=O)c1ccc(C)cc1	-8%	-26%
CCN(CC)C(=O)c1ccc(NS(=O)(=O)c2ccc(/C=C/C(=O)O)cc2)cc1	-1%	-9%
O=C(Nc1ccc2c(c1)C(=O)OC2)c1ccc(Cl)cc1Cl	-8%	-6%
C=CCn1c(SCC#N)nc2ccccc2c1=O	.	-12%
COc1ccc(S(=O)(=O)N2CCOCC2)cc1NC(=O)c1ccc2c(c1)OCCO2	i	-4%
COc1ccc(CN(C)CC(=O)Nc2ccc(N3CCOCC3)cc2)cc1OC	-18%	-6%
O=C(CNC(=O)c1cccnc1)c1ccc(F)cc1	-16%	-7%
Cc1cc(C)n2nc(CNS(=O)(=O)c3ccc(F)c(C)c3)nc2n1	-9%	11%
CC(CN1CCN(C)CC1)OC(=O)c1ccc(F)cc1 (stereo not given)	i	4%
O=C(NNC(=O)c1n[nH]c2ccccc12)c1ccccc1	-1%	-11%
CCCCC(=O)N(C)c1c(CC)nc2c(OCC(=O)c3ccc(F)cc3)cccn12	i	-8%
CC1=C(c2ccc(C)cc2)S(=O)(=O)N(Cc2ccc(C(=O)Nc3ccccc3C)cc2)C1=O	-7%	?
Cc1cccc(-c2noc(-c3cccnc3NCc3ccc(Cl)cc3)n2)c1	-3%	10%
Cc1ccc(C(=O)Nc2ccc(S(=O)(=O)Nc3onc(C)c3C)cc2)cc1	1%	-2%
COc1ccc(NS(=O)(=O)c2cc(NC(=O)c3cccs3)ccc2N2CCCC2)cc1	-26%	-14%
CCN(CC)C(=O)C1=C(C)N(CCCN2CCCC2=O)C(=O)C(CC(=O)NC2CC2)C1 (stereo not given)	i	-7%
O=C(CN(CCc1ccccc1)S(=O)(=O)c1ccc(Br)cc1)NCc1ccc(Cl)cc1	i	-25%
COC(=O)c1ccc(CSCC(=O)Nc2ccccc2)cc1	-11%	-8%
Nc1nc(SCC(=O)NCCN2CCOCC2)nc2sc3c(c12)CCC3	i	5%

Following part:
Structure	Vaccinia mCherry	Vaccinia Venus
Cc1ccc(Cl)cc1-c1cc(C(=O)NCc2ccco2)[nH]n1	-11%	4%
COc1ccc(-c2oc(NC(C)=O)c(C#N)c2-c2ccc(OC)cc2)cc1	-13%	-11%
CCOC(=O)N1CCN(C(=O)COc2ccc(Br)cc2)CC1	.	-5%
CONc1nc(NC(C)(C)C)nc(OCC#N)n1	-2%	-14%
Cc1ccc(CC(=O)NO)cc1	-9%	-12%
O=C(C1=C[C@@H](c2ccccc2)C[C@@H](OCc2ccc(CO)cc2)O1)N1CCOCC1	-5%	-8%
O=C(Nc1ccc(F)cc1)Nc1csc2c1CCCC2	-13%	-11%
O=C(CCc1nnc(-c2ccccc2)o1)NCc1c(F)cccc1F	-9%	3%
COCC(C)n1c(SCc2ccc(C(=O)OC)cc2)nc2ccccc2c1=O (stereo not given)	-5%	-8%
Cc1ccc(/C=C/C(=O)Nc2ccccc2C(N)=O)o1	-7%	8%
CC(NC(=O)c1ccc(Cn2cc([N+](=O)[O-])cn2)cc1)c1ccccc1 (stereo not given)	-23%	-14%
CCOc1cccc(-c2nn(-c3ccccc3)cc2/C=C(/C#N)C(=O)NCCCn2ccnc2)c1	?	?
CCN1CCN(Cc2cc(=O)oc3ccc(Cl)cc23)CC1	-14%	?
O=C(CCl)Nc1ccc(S(=O)(=O)NC2=NCCCCC2)cc1	14µM*	?
CC(C)(O)[C@@H]1[C@@H]2C[C@@]3(CC[C@]4(C)C(CCC5[C@@]6(C)CC[C@H](O)C(C)(C)C6CC[C@]54C)[C@@H]13)C(=O)O2 (stereo not given in full)	6%	11%

Reprinted from the results shown, six compounds:
Structure	Vaccinia mCherry	Vaccinia Venus
Cc1ccc(/C=C/C(=O)Nc2ccccc2C(N)=O)o1	-7%	8%
CC(NC(=O)c1ccc(Cn2cc([N+](=O)[O-])cn2)cc1)c1ccccc1 (stereo not given)	-23%	-14%
CCOc1cccc(-c2nn(-c3ccccc3)cc2/C=C(/C#N)C(=O)NCCCn2ccnc2)c1	?	?
CCN1CCN(Cc2cc(=O)oc3ccc(Cl)cc23)CC1	-14%	?
O=C(CCl)Nc1ccc(S(=O)(=O)NC2=NCCCCC2)cc1	14µM*	?
CC(C)(O)[C@@H]1[C@@H]2C[C@@]3(CC[C@]4(C)C(CCC5[C@@]6(C)CC[C@H](O)C(C)(C)C6CC[C@]54C)[C@@H]13)C(=O)O2 (stereo not given in full)	6%	11%

Compound activity (PubChem)
